Screens (PubChem BioAssay)
Mtb H37Rv: M. tuberculosis H37Rv growth inhibitors, H37Rv strain (AID 1626). M. tuberculosis H37Rv growth inhibition; higher % means a stronger effect. inhibition, % at 10 µM; hits with a dose series show IC50 in µM. hit rate 0.95% among 220,000;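 active = confirmed in a dose series; inconclusive = inhibition above 80% but not taken into the dose series; inactive = below 80% or under 30% at every dose of the series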;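 note: bacteria incubated seven days before Alamar blue readout; 0% = bacteria only wells and 100% = bacteria with antibiotic wells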
RecA intein inh: Mtb RecA intein splicing inhibitors, primary screen, biochemical, fluorescence, HTS | cell-free RecA intein splicing | hit rate 0.75% among 290,000 | inhibition, %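 (about 9 µM by stock and volumes)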; in the data active = inhibition above about 30%; inconclusive = no clear call, values can overlap the other calls;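 note: 0% = vehicle wells and 100% = reference inhibitor control wells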
Target sequence (P9WHJ3 whole entry, looked up): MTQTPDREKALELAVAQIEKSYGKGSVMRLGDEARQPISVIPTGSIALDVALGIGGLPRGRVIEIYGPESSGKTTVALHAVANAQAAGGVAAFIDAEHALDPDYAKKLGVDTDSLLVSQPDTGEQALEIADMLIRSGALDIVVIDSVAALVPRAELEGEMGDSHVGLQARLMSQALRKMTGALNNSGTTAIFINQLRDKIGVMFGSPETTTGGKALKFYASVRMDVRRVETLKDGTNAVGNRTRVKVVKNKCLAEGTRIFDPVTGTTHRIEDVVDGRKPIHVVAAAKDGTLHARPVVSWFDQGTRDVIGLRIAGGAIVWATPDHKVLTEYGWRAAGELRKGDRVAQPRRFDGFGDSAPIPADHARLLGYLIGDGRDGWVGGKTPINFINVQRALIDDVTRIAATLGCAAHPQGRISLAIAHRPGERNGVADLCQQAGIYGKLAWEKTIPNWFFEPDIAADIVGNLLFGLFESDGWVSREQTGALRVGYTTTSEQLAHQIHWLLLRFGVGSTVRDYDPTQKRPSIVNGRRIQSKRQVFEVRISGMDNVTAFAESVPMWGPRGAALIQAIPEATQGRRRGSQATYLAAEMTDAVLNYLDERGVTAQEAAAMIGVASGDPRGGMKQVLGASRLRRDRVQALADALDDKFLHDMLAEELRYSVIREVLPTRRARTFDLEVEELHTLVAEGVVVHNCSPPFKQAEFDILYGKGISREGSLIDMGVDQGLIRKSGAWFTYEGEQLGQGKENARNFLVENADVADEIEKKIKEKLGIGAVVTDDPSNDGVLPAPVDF
Mtb betalactam: beta-lactam sensitization of Mtb H37Rv, H37Rv. inhibition, % at 25 µM. M. tuberculosis H37Rv growth with meropenem, percent inhibition; hits of this screen are not shown here. hit rate 0.27% among 330,000;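 active = about 74% or more and at least 40 points above the plate without the antibiotic, then above 30% in a dose series; inconclusive = first-round hits that could not be retested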;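 note: growth measured after seven days incubation then overnight dye step; 0% = bacteria only wells and 100% = bacteria with antibiotic; twin plates without the antibiotic show which effects depend on it; some results filed as inactive read as strong as hits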
Arbovirus anti: antivirals against arbovirus infection, primary screen, cell-based, full library, 10K replicate subset. hit rate 0.37% among 200,000. AID 1251, 2008. inhibition, % at 10 µM. arbovirus infection cell-based antiviral screen;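 active = inhibition from about 30%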;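 note: bluetongue infection of BSR cells; cell survival read as ATP light after 72 h; 0% = infected wells without compound and 100% = uninfected wells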
YopH inh: YopH tyrosine phosphatase inhibitors, primary screen, biochemical, fluorescence Ex485/Em525. YopH tyrosine phosphatase [Yersinia enterocolitica]. inhibition, %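 (about 10 µM by stock and volumes)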. hit rate 0.16% among 140,000;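 active = inhibition of 50% or more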;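 note: controls were vehicle for no effect and minimum signal wells for full effect; inactives centre near -20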
Arbovirus anti repeat: also measured in Arbovirus anti; calls as there; inhibition, %; measured here: 10K subset replicate screen; many hits read low in the repeat;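 first of two repeat runs on a subset; 0% = infected and 100% = uninfected wells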
Numbers without * were called inactive; ? = inconclusive; . = no result given.

A first look, seven compounds:
SMILES | Mtb H37Rv | RecA intein inh | Mtb betalactam | Arbovirus anti | YopH inh | others
Cc1ccc2sc(=O)[nH]c2c1 | -3% | 0.3 | -6 | . | .
CCOc1ccc2nc(SC(CC)C(=O)Nc3cc(C)on3)sc2c1 (configuration not stated) | 9% | 0.7 | 24 | 4 | 1
COc1ccc(CN(CC2CCCO2)S(=O)(=O)c2ccc(C(=O)O)cc2)cc1OC (configuration not stated) | -10% | 1.8 | -5 | -2 | -52
O=C(Nc1ccccc1C(=O)N1CCOCC1)c1ccco1 | 3% | 4.4 | -1 | -1 | -27 | Arbovirus anti repeat=2
CCCOC(=O)c1cccc(Nc2nc(-c3cccnc3)nc3ccccc23)c1 | 14% | . | 32 | -17 | 10
CN1CCC(=NNC(=O)c2ccco2)CC1 | -3% | -0.7 | 75 | -1 | -59
O=c1[nH]c(=O)n(C2CCCCC2)c(O)c1/C=N/N1CCCCC1c1cccnc1 (configuration not stated) | -11% | -8.0 | -10 | . | .

The list itself, from the start:
SMILES | Mtb H37Rv | RecA intein inh | Mtb betalactam | Arbovirus anti | YopH inh | others
Cc1ccc2sc(=O)[nH]c2c1 | -3% | 0.3 | -6 | . | .
CCOc1ccc2nc(SC(CC)C(=O)Nc3cc(C)on3)sc2c1 (configuration not stated) | 9% | 0.7 | 24 | 4 | 1
COc1ccc(CN(CC2CCCO2)S(=O)(=O)c2ccc(C(=O)O)cc2)cc1OC (configuration not stated) | -10% | 1.8 | -5 | -2 | -52
O=C(Nc1ccccc1C(=O)N1CCOCC1)c1ccco1 | 3% | 4.4 | -1 | -1 | -27 | Arbovirus anti repeat=2
CCCOC(=O)c1cccc(Nc2nc(-c3cccnc3)nc3ccccc23)c1 | 14% | . | 32 | -17 | 10
CN1CCC(=NNC(=O)c2ccco2)CC1 | -3% | -0.7 | 75 | -1 | -59
O=c1[nH]c(=O)n(C2CCCCC2)c(O)c1/C=N/N1CCCCC1c1cccnc1 (configuration not stated) | -11% | -8.0 | -10 | . | .
Cc1cccc(NC(=O)COC(=O)C2C3CC4OC(=O)C2C4C3)c1C (configuration not stated) | . | -1.1 | -8 | . | .
COc1ccc(N(C(=O)c2cccnc2)S(=O)(=O)c2ccc3c4c(cccc24)C(=O)N3C)cc1 | -7% | -2.9 | -3 | 0 | -21
Cn1c(C(=O)NCCOc2ccccc2Cl)cc(=O)n(C)c1=O | 2% | 0.4 | -9 | 4 | .
O=C(Nc1ccc2c(c1)CCC2)c1ccc(Cl)nc1 | ? | -2.1 | 70 | -7 | .
C[C@]12CCC(=O)C=C1CC[C@@H]1C2CC[C@]2(C)C(=O)CCC12 (some centres not stated) | . | -0.8 | -5 | . | .
O=C(CSc1n[nH]c(-c2ccccc2)n1)N1CCCC1 | . | -1.6 | -1 | . | .
COC(=O)CSc1ncc(S(=O)(=O)c2ccccc2)c(=O)[nH]1 | . | 3.2 | -4 | . | .
Cn1c(Cc2cccs2)n[nH]c1=S | -4% | -1.4 | -2 | -6 | -10
O=C(O)c1ccc(N2C(=O)Nc3ccccc3N2O)cc1 | 4% | -0.4 | 5 | 3 | .
CS(=O)(=O)Nc1cccc(-c2cnc3ccccc3n2)c1 | . | -5.9 | 3 | . | .
CCN(CC)CCN(Cc1cc2cccc(C)c2[nH]c1=O)C(=S)Nc1ccccc1 | -4% | -0.1 | -3 | 14 | .
Cn1c(=O)c2c(-c3ccccc3)n(Cc3cccnc3)cc2n(C)c1=O | -12% | -1.8 | -9 | 0 | -38
Cc1onc(-c2c(Cl)cccc2Cl)c1C(N)=O | -10% | . | 6 | 3 | -1
O=C(CCC1CCCC1)Nc1ccc(C(=O)NCc2cccnc2)cc1 | -2% | 2.1 | -2 | -10 | .
O=c1[nH]cc(S(=O)(=O)N2CCCc3ccccc32)c(=O)[nH]1 | . | -1.7 | 2 | . | .
CC(OC(=O)c1cc(=O)[nH]c2ccccc12)C(=O)NCc1ccccc1 (configuration not stated) | . | 0.8 | -14 | . | .
Cn1c(=O)oc2cc(S(=O)(=O)N3CCC(C(=O)Nc4ccc(OC(F)(F)F)cc4)CC3)ccc21 | 5% | 1.8 | -8 | -5 | -17

Reprinted from the part before: 2 compounds; new compounds follow.
SMILES | Mtb H37Rv | RecA intein inh | Mtb betalactam | Arbovirus anti | YopH inh | others
CC(OC(=O)c1cc(=O)[nH]c2ccccc12)C(=O)NCc1ccccc1 (configuration not stated) | . | 0.8 | -14 | . | .
Cn1c(=O)oc2cc(S(=O)(=O)N3CCC(C(=O)Nc4ccc(OC(F)(F)F)cc4)CC3)ccc21 | 5% | 1.8 | -8 | -5 | -17
O=C(NCCC1=CCCCC1)NC12CC3CC(CC(C3)C1)C2 | <0.2µM* | 4.8 | 100 | -2 | -24
Cc1ccc(NC(=O)NNC(=O)COc2ccc3ccccc3c2)cc1 | . | -1.4 | -8 | . | .
Cc1ccc(C(=O)Cn2cnc3ccccc3c2=O)cc1C | 2% | -1.1 | 4 | -12 | -9
COc1ccc(NC(=O)CS(=O)(=O)Cc2ccccc2)c([N+](=O)[O-])c1 | . | 1.9 | 5 | . | .
CCCN1CNC(=S)N(c2ccccc2OCC)C1 | 6% | -1.6 | 1 | 8 | -25
Cc1sc(NC(=O)CSc2nnnn2C)c(C#N)c1C | -9% | -1.7 | 4 | 5 | .
COc1cc(CC(NC(C)=O)C(=O)NC2CCN(C(=O)Nc3ccc(C)cc3)CC2)cc(OC)c1 (configuration not stated) | . | -3.3 | -1 | . | .
Cc1cc(C)nc(SCCS(=O)Cc2ccc(Cl)cc2)n1 (configuration not stated) | 1% | -2.8 | -6 | 6 | -36
CCOC(=O)C(O)(c1ccc(NC(=O)c2ccc(Cl)c(Cl)c2)cc1)C(F)(F)F (configuration not stated) | -2% | 2.4 | -4 | . | .
Cc1ccc(S(=O)(=O)N/N=C/c2cnn(C)c2C)cc1 | . | 1.3 | 33 | 6 | -6
Cc1ccc(NC(=O)COCC(=O)Nc2ccc(C)cc2)cc1 | . | -1.9 | 94 | . | .
COc1ccc(CCNC(=O)c2nn(C)cc2Cl)cc1 | -3% | -0.1 | -8 | 4 | -77
COc1cc2c(cc1OC)C(COc1ccc([N+](=O)[O-])cc1)NCC2 (configuration not stated) | . | -4.1 | 5 | . | .
O=C(CSc1nnc(-c2cccnc2)n1Cc1ccco1)c1ccc(Cl)cc1 | -8% | 0.9 | -6 | -3 | -38
CCOC(=O)NC(=O)/C(C#N)=N/Nc1c(F)cccc1F | -4% | -0.3 | -4 | 3 | -72
COc1ccc(CC(=O)NCCS(=O)(=O)N2CCN(c3ccccc3OC)CC2)cc1 | . | -0.3 | 1 | . | .
CCCCCCc1ccc(OCC(=O)O)cc1OCC(=O)O | -15% | 1.2 | ? | 6 | -36
COc1ccc(S(=O)(=O)N(C)CC(=O)Nc2ccc3c(c2)OCO3)cc1OC | 4% | 10 | -5 | -14 | -67
O=[N+]([O-])c1cn(Cc2ccc(Cl)cc2)cn1 | -7% | -0.2 | -3 | -20 | 2
O=C(NCCN1CCCCC1)/C(=N\O)c1ccccc1 | -4% | . | 3 | 7 | -58
CC(C)(C)C(=O)NNC(=O)c1cc2sccc2s1 | 13% | 0.7 | 3 | . | .
COc1ccc(N2CCN(C(=O)[C@@H](NC(=O)c3ccccc3Cl)C(C)C)CC2)cc1 | . | -1.0 | -1 | . | .
O=C(NNC(=O)c1ccc(NC(=O)c2ccccc2)cc1)c1ccccc1 | 1% | -1.0 | -5 | -10 | .
O=S(=O)(Nc1nccs1)c1cnc(Cl)c(Br)c1 | 0% | 2.6 | -5 | 8 | -10
COc1ccc(C(=O)Nc2cc([N+](=O)[O-])ccc2N2CCN(C)CC2)cc1 | -4% | 3.3 | -1 | 12 | -22
O=C(NCCCN1CCCC1)c1ccc(CSCc2cccc(Cl)c2)o1 | -8% | 3.5 | -1 | -24 | -15
COc1cc(/C=N/NC(=O)C23CC4CC(CC(C4)C2)C3)cc(Br)c1O | 3% | -0.3 | 10 | 0 | -27
COc1ccc(NC(=O)C2CCC(CNc3c(N4CCC(C)CC4)c(=O)c3=O)CC2)cc1OC (configuration not stated) | 7% | -1.6 | -1 | 6 | -45
CCc1ccc(N2CC34C=CC(O3)C(C(=O)OC)C4C2=O)cc1 (configuration not stated) | -3% | 0.5 | ? | 3 | -12 | Arbovirus anti repeat=2
O=C(Nc1ccc(F)cc1)c1ccc(S(=O)(=O)N2CCCC2)cc1 | . | 1.1 | -5 | . | .
CCCn1c(SCC(=O)NC2CC2)nnc1-c1cccs1 | . | 0.5 | -3 | . | .
O=C(NCC1CCCO1)Nc1ccc(Cl)cc1 (configuration not stated) | -4% | 0.0 | -19 | 7 | 3
O=S(=O)(Nc1ccc(N2CCCCC2)cc1)c1ccc(F)cc1F | 0% | -1.0 | -2 | . | .
Cc1cnc(C(=O)Nc2ccc(N3CCOCC3)cc2)cn1 | -3% | -2.3 | 3 | -3 | 8
CC1CCCCC1NC1=NCCCS1 (configuration not stated) | 1% | -2.1 | 0 | 8 | .
O=C(N/N=C/c1ccccn1)c1ccc(Cl)cc1 | . | 1.5 | 77 | . | .
Cc1nc(N2CCOCC2)nc2c1CCC2 | 1% | 1.1 | 6 | 5 | .
Cc1nn(Cc2ccccc2)c(N)c1C#N | 0% | 10 | -4 | -2 | -44 | Arbovirus anti repeat=3
COc1cc(NC(=S)NCc2cccnc2)cc(OC)c1 | -12% | -0.5 | 0 | 2 | -27
Cc1cc(NC(=O)COc2cccc([N+](=O)[O-])c2)no1 | . | -1.6 | 2 | . | .
CCOC(=O)C1CCCN(S(=O)(=O)c2ccc3ccccc3c2)C1 (configuration not stated) | . | 2.4 | -2 | . | .
C/C(N)=C(/C#N)C(=O)CSc1nnc(Nc2ccccc2C)s1 | 1% | 11 | -15 | 6 | -35
COC(=O)CCC(=O)OC1(C)C(=O)C=C2C=C(C3CC3)N(Cc3ccccc3)C=C2C1=O (configuration not stated) | -3% | 12 | 11 | . | .
O=C(NCc1csc(-c2cccs2)n1)Nc1ccc(C(F)(F)F)cc1 | 7% | . | -2 | . | .
O=C(CSc1nnc2n1CCCN2)c1ccccc1 | 15% | -2.6 | -5 | . | .
O=C(c1ccco1)N1CCN(C(=O)C(Sc2ccccc2)c2ccccc2)CC1 (configuration not stated) | -5% | 0.7 | -6 | 6 | 10
CCCNC(=O)COc1ccc(-c2nn(C)c(=O)c3ccccc23)cc1 | . | -2.1 | -4 | . | .
CSc1nc(Cl)c(Cc2ccc(OC(C)C)cc2)c(N(C)C)n1 | 7% | 3.5 | 11 | 27 | -12
Cc1nn(-c2ccccc2)c(N)c1C(O)(C(F)(F)F)C(F)(F)F | 3% | 1.4 | 3 | 0 | -12
Cc1csc(NC(=O)CSc2nnc(Cc3cccn3C)n2CCc2ccccc2)n1 | -1% | . | -5 | 6 | -19 | Arbovirus anti repeat=-2
COc1ccc(C)cc1S(=O)(=O)N(C)CC(=O)Nc1ccccc1 | 2% | 1.8 | -2 | 7 | 4
CC(C)CC(=O)Nc1cccc2c1C(=O)N(c1ccccc1)C2=O | -6% | 0.2 | -6 | 9 | -3
O=C(c1cc2ccccc2oc1=O)N1CCN(c2ccc(N3CCOCC3)nn2)CC1 | 0% | 0.9 | 7 | 6 | -27 | Arbovirus anti repeat=3
O=C(CCNC(=O)C1CCN(S(=O)(=O)c2ccc(F)cc2)CC1)NCc1ccccc1Cl | . | 0.9 | -6 | . | .
COc1ccc([C@@H]2[C@H]3CN(C(C)=O)CC=C3C(C#N)=C(N)C2(C#N)C#N)c2ccccc12 | 3% | 13 | . | -7 | -28
CC(=O)CC(C)(C)Nc1nc2cc([N+](=O)[O-])ccc2o1 | 4% | 1.0 | -6 | . | .
CCOc1ccc(C(=O)NN2C(=S)NC(C)(C)C=C2C)cc1 | -6% | -2.4 | -2 | . | .
Cc1ccccc1CNC(=O)c1ccccc1C | 12% | 2.0 | 6 | 3 | 9
Cn1c(Cn2cnc3ccccc32)nnc1SCc1ccccc1 | -3% | -2.5 | -1 | 11 | -40
Cc1nn(CC(=O)NCCc2ccccc2)c(=O)c2cccn12 | . | -1.5 | 1 | . | .

Going on with the list.
SMILES | Mtb H37Rv | RecA intein inh | Mtb betalactam | Arbovirus anti | YopH inh | others
O=C(O)CSCc1nc2ccccc2s1 | -8% | 1.8 | -10 | -2 | -38
Cc1ccc(-n2nc3c(=O)n(CCCC(=O)NCc4ccc(C)o4)nc(C)c3c2C)cc1 | . | 1.0 | 4 | . | .
CC(C)(C)c1ccc(C(=O)NCC(=O)OCC(=O)c2ccc3c(c2)-c2ccccc2C3)cc1 | 4% | 4.9 | 22 | 1 | -9
Cc1nnc(Sc2c(N)n(C)c(=O)n(C)c2=O)s1 | 0% | -4.9 | 5 | 4 | 1
CCCOC(=O)c1ccc(OCC(O)CN2CCN(C(=O)c3ccccc3)CC2)cc1 (configuration not stated) | -3% | -1.6 | -2 | 0 | -30

An excerpt; count on the stated rates, not on these rows.
